Screening results as filed in PubChem BioAssay.
LANA-H2A inh: blockers of LANA interaction with H2A/H2B – biochemical, FP readout, HTS, primary screen | cell-free LANA-H2A/H2B peptide, fluorescence polarization | 0.6% of 320,000 active | AID 2629, 2010 | inhibition, % (no concentration beside the values); in the data active = inhibition mostly above about 10%, no sharp cut-off; inactive = mostly below about 6.7%;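 note: stock transfer was 7.5 nL into about 10 µL; 0% = median of vehicle wells and 100% = median of positive control wells; one replicate is shown; the record names a cut of 25% in any replicate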
Target sequence (Q9QR71 whole entry, looked up): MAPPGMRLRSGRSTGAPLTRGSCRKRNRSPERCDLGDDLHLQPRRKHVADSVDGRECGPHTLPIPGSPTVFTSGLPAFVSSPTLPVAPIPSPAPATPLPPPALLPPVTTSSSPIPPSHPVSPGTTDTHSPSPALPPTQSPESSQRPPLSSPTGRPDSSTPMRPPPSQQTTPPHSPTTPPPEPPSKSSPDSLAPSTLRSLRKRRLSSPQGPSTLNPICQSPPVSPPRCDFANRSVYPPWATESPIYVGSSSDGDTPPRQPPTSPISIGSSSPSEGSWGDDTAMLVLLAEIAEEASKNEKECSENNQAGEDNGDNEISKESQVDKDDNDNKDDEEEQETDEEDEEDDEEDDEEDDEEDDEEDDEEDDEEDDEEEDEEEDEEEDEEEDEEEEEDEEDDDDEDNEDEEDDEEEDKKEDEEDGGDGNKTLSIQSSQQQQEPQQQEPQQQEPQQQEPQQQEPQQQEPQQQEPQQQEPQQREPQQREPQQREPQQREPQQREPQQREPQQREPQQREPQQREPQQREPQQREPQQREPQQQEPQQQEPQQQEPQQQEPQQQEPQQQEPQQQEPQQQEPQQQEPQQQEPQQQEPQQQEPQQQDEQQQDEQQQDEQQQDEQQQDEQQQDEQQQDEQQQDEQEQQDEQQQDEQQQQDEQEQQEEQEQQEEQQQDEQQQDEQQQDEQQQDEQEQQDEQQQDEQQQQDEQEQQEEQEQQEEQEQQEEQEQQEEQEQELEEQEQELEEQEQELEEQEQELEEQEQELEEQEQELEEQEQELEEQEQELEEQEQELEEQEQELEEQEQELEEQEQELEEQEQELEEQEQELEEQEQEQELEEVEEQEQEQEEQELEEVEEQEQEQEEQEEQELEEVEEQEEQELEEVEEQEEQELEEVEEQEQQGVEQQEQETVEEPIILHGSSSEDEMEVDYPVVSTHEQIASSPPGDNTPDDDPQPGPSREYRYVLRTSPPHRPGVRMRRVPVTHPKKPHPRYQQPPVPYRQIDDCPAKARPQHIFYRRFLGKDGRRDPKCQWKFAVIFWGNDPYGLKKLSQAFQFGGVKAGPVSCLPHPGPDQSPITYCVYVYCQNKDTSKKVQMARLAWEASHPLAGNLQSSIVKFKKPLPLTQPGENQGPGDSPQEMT
Ecoli growth: E. coli growth inhibition, primary screen, OD600; Escherichia coli growth, 23 h; hits give low values; OD600 absorbance (test concentration not listed); AID 1053175, 2014; 0.21% of 330,000 active;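 active = OD600 absorbance below the run mean of sample wells minus 3.6 SD, in any replicate, cut at about 0.56 in these data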;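 note: stock transfer was 300 nL into about 60 µL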
HNF4A DNA FP: change in binding of human HNF4A to DNA, primary screen, biochemical, fluorescence polarization, FITC-DNA; AID 1224865, 2016; Hepatocyte nuclear factor 4-alpha (Homo sapiens), P41235; 0.3% of 360,000 active; activity change, % at 10 µM; 1 h; in the data active = activity change above about 30%, passing the limit was not always enough;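 note: controls were the assay level and a saturating level of protein; the project sought stronger binding though the title names inhibitors; some compounds called inactive have numbers as strong as hits; positive values seem to mean higher polarization but the record does not say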
UCH37 inh: inhibitors of human UCH37 deubiquitinase, primary screen, biochemical, Ub-AMC cleavage, fluorescence; 0.33% of 330,000 active; purified proteasome/UCH37; inhibition, % (concentration not given with the values); AID 588478, 2011;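 active = mean of two replicates above 20%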;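 note: 0% = compound-free wells with enzyme and 100% = wells lacking proteasome; stock transfer was 100 nL into about 20 µL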
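Assay system: Proteasome-bound UCH37. Buffer or medium: pH 7.4 Tris-HCl (50 mM) with ovalbumin, ATP-MgCl2, DTT. Incubation: 30 min preincubation with enzyme, 25 min cleavage at room temperature. Measured by: fluorescence, ex 355 nm, em 460 nm. Read-out basis: percent inhibition. Control set: wells without proteasome as full block, compound-free enzyme plus substrate as uninhibited.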
ALR H2O2 inh: inhibitors of human ALR sulfhydryl oxidase, primary screen, biochemical, H2O2 detection, HRP-luminol luminescence, single point; FAD-linked sulfhydryl oxidase ALR (Homo sapiens), P55789; purified ALR, DTT oxidation; inhibition, % (no concentration beside the values); 3.8% of 290,000 active; AID 485317, 2010;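 active = mean and each replicate at 75% or more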;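 note: stock transfer was 7.5 nL into about 7.5 µL; 0% = neutral wells and 100% = wells with inactivated enzyme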
B2AR ag: beta2AR agonists driving receptor internalization, primary screen, cell-based, FAP fluorogen, flow cytometry; Am2.2-beta2AR cells; reference of the scale not given here; AID 504454, 2011; 0.43% of 340,000 active; response, % (test concentration not listed);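 active = response above a set limit, near 3 SD of response in nonfluorescent compounds, cut at about 42% in these data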;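 note: stock transfer was 100 nL into about 11 µL; a reference agonist was the positive control; negative values mostly stem from fluorescent compounds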
FGF22 binding: binders of human FGF22 protein, primary screen, FGF22 synaptogenesis inhibitor project, biophysical, thermal shift, single point; Fibroblast growth factor 22 (Homo sapiens), Q9HCT0; 1.5% of 340,000 active; recombinant FGF22 thermal shift, SYPRO orange fluorescence; percent of sucrose octasulfate shift, DMSO zero; calls only at 9.99 µM;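 active = melting point raised past a set limit in the mean and every replicate; three in four hits are not shown here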
* hit, by the source's call; i = inactive; . = no result given; & = joins results of further samples. An excerpt (hit frequency here may not be typical).

SMILES	LANA-H2A inh	Ecoli growth	HNF4A DNA FP	UCH37 inh	ALR H2O2 inh	B2AR ag	FGF22 binding
CC(C(=O)NCc1ccccc1)N1C(=O)c2ccccc2C1=O (centres undefined)	-0.4	0.65	2.5	3.1	1	-4	i
O=C(Nc1ccc(Cl)cc1)c1csc(Cc2ccccc2)n1	-1.5	0.66	2.6	-0.6	.	4	i
COc1ccc2c(C)cc(SCc3c(C)noc3C)nc2c1	0.1	0.72	2.7	-2.3	-6	4	i
CCOC(=O)N1CCN(Cc2nc3ccc([N+](=O)[O-])cc3c(=O)n2-c2ccc(OC)cc2OC)CC1	-3.6	0.69	2.6	6.8	-31	-10	i
CC1(CCc2ccccc2)NC(=S)N(c2ccccc2)N1 (centres undefined)	3.2	0.7	-0.3	-0.8	99*	1	i
COc1ccc(NC(=O)CCC(=O)OCC(=O)c2ccc(Oc3ccc([N+](=O)[O-])cc3)cc2)cc1	-5.6	.	2.6	.	1	-3	i
O=C(c1ccccc1)c1ccccc1C(=O)N1CCN(C(=O)c2ccccc2)CC1	-0.6	0.7	0.1	-0.1	3	2	i
O=C(COC(=O)C12CC3CC(CC(C3)C1)C2)Nc1ncc(Cl)cc1Cl	3.6	0.7	0.1	0.0	-3	-1	.
Cc1cc2c(cc1S(=O)(=O)N1CCCC1)n(C)c(=O)c(=O)n2C	2.7	0.74	1.6	3.7	-6	4	i
COc1cccc(C(=O)Nc2cc(C(=O)NCc3ccc(C)cc3)ccc2N2CCC3(CC2)CC(c2ccccc2)=NO3)c1	-12	0.75	4.2	4.1	-1	-4	i
CCC(C)N1CCN(S(=O)(=O)c2ccc(NC(C)=O)cc2)CC1 (centres undefined)	-0.4	0.69	4.7	3.9	3	0	i
CC(=O)Oc1ccc(C)cc1N1C(=O)c2ccc(C(=O)O)cc2C1=O	3.2	0.71	-1.5	-2.9	69	0	.
C#CCN1C(=O)C(O)(CC(=O)c2ccc3c(c2)OCCO3)c2ccccc21 (centres undefined)	-0.2	0.74	-0.5	4.7	69	1	i
O=C(COC(=O)c1cncc(Br)c1)Nc1nnc(-c2ccccc2)o1	4.7	0.74	-8.9	4.2	.	-1	i
O=C(OCC(=O)N1CCN(C(=O)c2ccco2)CC1)c1cccc(F)c1	.	0.68	0.4	-0.3	.	10	i
COc1cc(C)ccc1OCc1cc(C(=O)N2C[C@H]3CC[C@H]2C3)no1	-0.3	0.68	-3.1	7.3	1	0	i
COC(=O)c1ccc2ccccc2c1OC1OC(CO)C(O)C(O)C1NC(C)=O (centres undefined)	2.9	0.72	-1.0	-9.4	0	8	i
O=C(COC(=O)CCCN1C(=O)c2ccccc2C1=O)Nc1cc(Cl)cc(Cl)c1	-2.2	0.66	-3.1	-1.2	2	-3	.
N#CCC(=O)Nc1ccc(C(=O)OCC(=O)NCc2ccc3c(c2)OCO3)cc1	3.5	0.68	4.2	1.6	99*	-12	i
CC1(C)COC(c2cc([N+](=O)[O-])ccc2Cl)=N1	.	0.69	6.6	-0.1	.	17	.
COc1cccc2sc3cc(C#CC4(O)CCCCC4)ccc3c(=O)c12	-5.4	0.68	4.2	-2.7	-5	50*	i
CC1CCC(C(C)C)C(OC(=O)Cn2c(-c3ccc(Br)cc3)[n+](C)c3ccccc32)C1 (centres undefined)	-0.9&0.2	0.65&0.63	0.8&2.0	9.7&8.4	-2&0	15&15	i
Cc1noc(C)c1NC(=O)Nc1ccc2c(c1)CC(=O)N([C@@H](C)CO)C[C@@H](C)[C@@H](CN(C)C(=O)Nc1cccc3ccccc13)O2	2.2	.	-5.4	1.5	-10	-3	i
CCOc1ccc(CCNC(=O)COC(=O)c2cc(=O)[nH]c3ccccc23)cc1OCC	-1.6	0.68	-0.5	-2.4	23	3	i
COc1cc(/C=N/NC(=S)NCCN2CCOCC2)ccc1O	-0.7	.	-3.2	.	99*	2	.
COc1ccccc1/C=C(\NC(=O)c1ccc(OC)c(OC)c1)C(=O)Nc1cc([N+](=O)[O-])ccc1C	-1.5	0.73	-2.3	0.3	1	2	i
CC(=O)Nc1ccc(C(=O)NC2CCSc3ccccc32)cc1 (centres undefined)	-0.7	0.75	0.6	2.9	-1	3	i
CCOCC(=O)Nc1cccc(OC)c1	-8.3	0.77	0.6	4.8	-9	2	.
O=C(COc1ccccc1Cl)N1N=C(c2cccs2)CC1c1ccco1 (centres undefined)	-0.7	0.74	0.5	-5.1	13	-4	i
COc1cccc(-n2cc(CNC(=O)C3CCC(=O)N(C4CC4)C3)cn2)c1 (centres undefined)	3.2	0.68	2.0	0.8	-1	1	i

Full records, quoted from the list.
COC(=O)c1ccc2ccccc2c1OC1OC(CO)C(O)C(O)C1NC(C)=O (centres undefined) across the screens: LANA-H2A inh: 2.9; Ecoli growth: 0.72; HNF4A DNA FP: -1.0; UCH37 inh: -9.4; ALR H2O2 inh: 0; B2AR ag: 8; FGF22 binding: i
Cc1noc(C)c1NC(=O)Nc1ccc2c(c1)CC(=O)N([C@@H](C)CO)C[C@@H](C)[C@@H](CN(C)C(=O)Nc1cccc3ccccc13)O2 across the screens: LANA-H2A inh: 2.2; Ecoli growth: .; HNF4A DNA FP: -5.4; UCH37 inh: 1.5; ALR H2O2 inh: -10; B2AR ag: -3; FGF22 binding: i
COc1ccccc1/C=C(\NC(=O)c1ccc(OC)c(OC)c1)C(=O)Nc1cc([N+](=O)[O-])ccc1C across the screens: LANA-H2A inh: -1.5; Ecoli growth: 0.73; HNF4A DNA FP: -2.3; UCH37 inh: 0.3; ALR H2O2 inh: 1; B2AR ag: 2; FGF22 binding: i

New compounds follow
SMILES	LANA-H2A inh	Ecoli growth	HNF4A DNA FP	UCH37 inh	ALR H2O2 inh	B2AR ag	FGF22 binding
CCN(CC)C(=O)CSc1nc2ccccc2c(=O)n1CCC(=O)NCCc1ccc(OC)c(OC)c1	1.0	0.73	-3.0	0.9	.	-1	i
CSCC[C@H](NC(=O)OC(C)(C)C)C(=O)NCC1CCC(C(=O)O)CC1 (some centres undefined)	-1.9	0.7	1.3	-2.0	10	1	i
CC1(C)CC(N(Cc2ccccc2)C(=O)Cc2ccccc2)CCO1 (centres undefined)	2.6	0.63	-2.1	-0.5	-5	-23	i
Cc1ccc(S(=O)(=O)Nc2ccc(Cl)cc2)cc1NC(=O)c1cc2c(s1)CCCC2	-1.9	.	-3.0	1.9	-3	1	.
Cc1ccccc1Nc1c(-c2ccc(N3CCOCC3)cc2)nc2ncccn12	0.5	0.68	1.1	-1.5	98*	-2	i
Cc1ccc(S(=O)(=O)Nc2ccccc2C(=O)N2CCCC2)cc1	-6.4	0.73	0.6	5.2	-6	3	i
CC(=O)c1ccc(Sc2ccccc2N)c([N+](=O)[O-])c1	4.9	0.65	4.1	4.1	60	7	i
O=C(CN1C(=O)c2ccccc2S1(=O)=O)N1CCN(c2ccccc2F)CC1	1.7	0.77	-1.9	4.6	3	-10	.
Cc1cc(NC(=O)COC(=O)CNS(=O)(=O)c2c(F)cc(F)cc2Br)no1	-1.3	0.71	0.5	0.8	-3	4	i
CSc1nc(N)c2c(n1)OC(N)=C(C#N)C2c1cccnc1 (centres undefined)	-2.4	0.71	-5.4	3.8	15	-3	i
CCOC(=O)C1=C(C)N(C[C@@H]2CC[C@@H](Cc3ccc(-c4ccccc4)cc3)O2)C(=O)NC1c1ccc([N+](=O)[O-])cc1 (some centres undefined)	.	0.73	-2.2	1.0	.	1	i
CCC(C)NC(=O)c1ccc2c(SCC(=O)O)c3c(nc2c1)CCCC3 (centres undefined)	3.4	0.65	0.9	3.1	97*	2	.
O=C1CSC(=Nc2ccc(Cl)cc2)N1	-1.8	0.66	2.5	3.0	-2	0	i
COC(=O)c1ccccc1NC(=O)CSc1nnnn1C1CCCCC1	-0.6	0.67	-0.8	1.7	-7	-2	.
CCOc1cc(C(c2c(C)[nH][nH]c2=O)c2c(C)[nH][nH]c2=O)ccc1O	9.4	0.67	0.8	58*	95*	10	.
COc1ccccc1C(=O)C1CCCN(C(=O)c2cccc(-n3cccn3)c2)C1 (centres undefined)	0.4	0.73	-0.5	5.3	69	8	i
Cc1cc(C)c2c(CC(=O)Nc3ccc(Cl)cn3)coc2c1	-2.8	0.73	-3.9	2.0	3	-7	.
CCS(=O)(=O)c1ccc2oc(Nc3ccccc3Cl)nc2c1	1.2	0.69	2.7	1.7	-3	4	i
CCOC(=O)c1sc(NC(C)=O)nc1C	7.9	0.7	4.5	1.3	-1	-4	i
O=S(=O)(Nc1nccs1)c1ccc(Br)cc1	1.7	0.64	3.8	-0.4	-5	2	i
COc1ccc(NS(=O)(=O)c2cccc(C(=O)N3CCN(S(=O)(=O)c4ccccc4)CC3)c2)cc1	.	0.67	-0.3	5.3	.	7	i
CN1C(=O)/C(=C\C(=O)c2cccs2)c2ccccc21	.	.	-0.6	3.2	.	-3	i
COC(=O)CCC(=O)N1CCCC(N2CCN(c3cccc(C(F)(F)F)c3)CC2)C1 (centres undefined)	-3.6	0.64	-4.6	1.8	.	5	i
O=C(NCCC1CCCCN1S(=O)(=O)c1ccccc1)C(=O)Nc1ccc(F)cc1 (centres undefined)	1.5	0.69	4.9	0.2	-2	-8	i
CCN(C(=O)CSc1nnnn1C)C1CCS(=O)(=O)C1 (centres undefined)	.	0.68	1.2	3.9	.	-5	i
Cc1cccc(/C=N/NC(=O)CN2CCCCCCC2)c1	-2.7	.	-0.4	.	-2	14	i
CC(C)(C)c1cc(NC(=O)c2ccc(OC3CCCC3)cc2)no1	5.9	0.68	2.0	2.1	-2	-5	i
CC1CCCN(C(=O)Cn2c(-c3nonc3N)nc3ccccc32)C1 (centres undefined)	5.8	0.73	6.7	2.5	8	-10	.
O=C(Nc1ccc2nc(SCc3ccc(Cl)cc3)sc2c1)c1ccccc1C(=O)N1CCOCC1	2.0	0.7	-1.2	1.6	-29	107*	.
Cc1ccc(C(C(=O)NCc2ccccc2)N(Cc2cccs2)C(=O)c2ccc3c(c2)OCCO3)cc1 (centres undefined)	2.4	0.79	0.9	2.7	-6	17	i
c1ccc(-c2nc3ccccc3[nH]2)cc1	3.7	0.61	-1.0	3.5	-4	-25	i
CCN(C(=O)CSc1nnc(CNc2cccc(OC)c2)n1C1CCCCC1)C1CCS(=O)(=O)C1 (centres undefined)	-0.6	0.72	-1.6	1.7	13	-9	i
Nc1ncnc2c1ncn2[C@@H]1O[C@H](CNC(=O)[C@@H](N)CO)[C@@H](O)[C@H]1O	.	0.71	5.0	-2.9	.	-3	i
CSc1nc2c(cc1C#N)CCC2	-0.8	0.64	2.4	1.2	-10	-2	i
Cc1ccc(CON=C2CCN(c3ncc(C(F)(F)F)cc3Cl)CC2)cc1	4.4	0.67	4.4	1.0	-10	1	.
Cc1csc(=O)n1CC(=O)OCC(=O)c1c(N)n(C)c(=O)n(C)c1=O	-3.8	0.7	0.2	1.0	-1	-10	i
O=c1ccc(-c2ccccc2)nn1Cc1ccc(Cl)cc1	-2.0	.	-8.1	.	.	-13	i
COc1ccc(OC)c(NC(=O)c2ccc(NC3=NC4CS(=O)(=O)CC4S3)cc2)c1 (centres undefined)	-7.8	0.78	0.6	5.1	-23	-7	i
Cc1ccccc1CSCC(=O)Nc1c(C)n(C)n(-c2ccccc2)c1=O	-0.4	0.65	0.5	0.1	98*	-13	i
CC(=O)c1nc2ccccc2n1S(=O)(=O)c1ccc(C)cc1	2.7	0.69	9.6	-29	-29	-13	.
Cc1cccc(NC(=O)c2ccc(C(=O)c3ccccc3)o2)c1	4.5	0.69	0.1	3.7	.	0	i
O=C(NCc1cccc(Cl)c1)c1ccc2c(c1)OCCO2	-12	0.64	0.0	-0.6	3	-1	i
CCOC(=O)N1CCN(C(=O)CSc2nnc(Cc3cccn3C)n2CCc2ccccc2)CC1	-3.2	0.68	7.7	1.9	7	3	.
